Assay outcomes as filed in PubChem.
E coli growth – E. coli growth inhibition, primary screen, OD600. Escherichia coli growth, 23 h; active compounds read low. OD600 absorbance (test concentration not listed). actives 0.21% (n = 330,000);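 active = OD600 absorbance below the run mean of sample wells minus 3.6 SD, in any replicate, cut at about 0.56 in these data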;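 also: stock transfer was 300 nL into about 60 µL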
rRNA inh HTS – reduced GFP signal of wild-type E. coli, primary screen, bacterial rRNA inhibitor project, GFP/RFP fluorescence, OD600, single point; E. coli WT GFP vs humanized-ribosome RFP mutants, 24 h; active compounds read low; DMSO median 0, no signal -100; GFP signal change (wild-type ribosome), % (no concentration beside the values); actives 1.6% (n = 350,000);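 active = significant combined selectivity score with lowered wild-type GFP, culture density cut under 30%, mutant RFP and density less affected; inactive = any of these conditions unmet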; also: one replicate is shown; some compounds called inactive have numbers as strong as hits
Beta apoptosis – inhibitors of cytokine-induced beta cell apoptosis, primary screen, luminescence; protection from apoptosis, % (concentration not given with the values); INS-1E cytokine-induced death, ATP luminescence, 48 h; percent of positive-control rescue, neutral wells zero; AID 435005, 2010; actives 0.8% (n = 300,000);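 active = all replicates at 75% or more, or half of them and the mean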;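 also: 0% = cytokine-treated negative control wells and 100% = positive control rescue; higher means more ATP so stronger rescue from cytokine killing; wells of about 40 µL received 100 nL stock; the first replicate is given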
UCH37 DUB inh – inhibitors of human UCH37 deubiquitinase, primary screen, biochemical, Ub-AMC cleavage, fluorescence | Ubiquitin carboxyl-terminal hydrolase isozyme L5 (Homo sapiens), Q9Y5K5 | purified proteasome/UCH37 | inhibition, % (test concentration not listed) | actives 0.33% (n = 330,000) | AID 588478, 2011;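 active = mean of two replicates above 20%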;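 also: 0% = compound-free wells with enzyme and 100% = wells lacking proteasome; stock transfer was 100 nL into about 20 µL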
Target sequence (Q9Y5K5 whole entry, looked up): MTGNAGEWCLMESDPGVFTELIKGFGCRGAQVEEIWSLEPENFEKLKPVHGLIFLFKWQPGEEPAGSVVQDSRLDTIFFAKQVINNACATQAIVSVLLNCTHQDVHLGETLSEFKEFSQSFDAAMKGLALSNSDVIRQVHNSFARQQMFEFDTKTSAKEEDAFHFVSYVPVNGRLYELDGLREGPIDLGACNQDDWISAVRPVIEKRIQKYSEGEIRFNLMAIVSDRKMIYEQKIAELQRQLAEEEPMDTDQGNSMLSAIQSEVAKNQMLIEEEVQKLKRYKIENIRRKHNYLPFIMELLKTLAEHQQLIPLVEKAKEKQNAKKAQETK
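Material: Human UCH37 enzyme supplied as purified proteasome complex | Schedule: 30 min preincubation with enzyme, 25 min cleavage at room temperature | Detection: AMC fluorescence 355/460 nm | Measure: % inhibition of Ub-AMC cleavage fluorescence | Controls: Wells without proteasome as full block, compound-free enzyme plus substrate as uninhibited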
Bfl-1 A1 inh – caspase 3/7 activation in MEF A1-2A-BIM cells, primary screen, A1 inhibitor project, cell-based, luminescence, HTS | Caspase-Glo 3/7 luminescence, 3 h; percent of clofoctol response, vehicle zero | caspase activation, % (no concentration beside the values) | actives 0.066% (n = 330,000);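 active = over half of replicate activation scores above 10%, or exactly half above 10 with the replicate mean above 10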;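 also: wells of about 30 µL received 50 nL stock; many hits fall short of the cut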
FGF22 binding – binders of human FGF22 protein, primary screen, FGF22 synaptogenesis inhibitor project, biophysical, thermal shift, single point; Fibroblast growth factor 22 (Homo sapiens), Q9HCT0; recombinant FGF22 thermal shift, SYPRO orange fluorescence; percent of sucrose octasulfate shift, DMSO zero; calls only at 9.99 µM; actives 1.5% (n = 340,000); AID 651658, 2012;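 active = melting point raised past a set limit in the mean and every replicate; three in four hits are not shown here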
Target sequence (Q9HCT0 whole entry, looked up): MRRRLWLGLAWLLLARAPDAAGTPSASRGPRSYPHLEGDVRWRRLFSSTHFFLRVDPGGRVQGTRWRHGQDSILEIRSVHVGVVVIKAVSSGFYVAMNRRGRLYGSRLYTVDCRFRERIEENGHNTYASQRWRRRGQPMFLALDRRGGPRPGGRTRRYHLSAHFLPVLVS
AF4-AF9 inh – inhibitors of AF4 peptide binding to AF9, primary screen, biochemical, AlphaScreen, biotin-AF4 peptide, FLAG-AF9, single point; AID 651704, 2012; inhibition, % at 10 µM; Protein AF-9 (Homo sapiens), P42568; actives 0.47% (n = 350,000);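 active = every replicate reaching a set inhibition limit, whatever the replicate mean, cut at about 25% in these data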;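 also: 0% = plate neutral control median and 100% = total signal loss; the record names both 10 and 1 µM as test concentration; the first replicate is given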
Target sequence (P42568 whole entry, looked up): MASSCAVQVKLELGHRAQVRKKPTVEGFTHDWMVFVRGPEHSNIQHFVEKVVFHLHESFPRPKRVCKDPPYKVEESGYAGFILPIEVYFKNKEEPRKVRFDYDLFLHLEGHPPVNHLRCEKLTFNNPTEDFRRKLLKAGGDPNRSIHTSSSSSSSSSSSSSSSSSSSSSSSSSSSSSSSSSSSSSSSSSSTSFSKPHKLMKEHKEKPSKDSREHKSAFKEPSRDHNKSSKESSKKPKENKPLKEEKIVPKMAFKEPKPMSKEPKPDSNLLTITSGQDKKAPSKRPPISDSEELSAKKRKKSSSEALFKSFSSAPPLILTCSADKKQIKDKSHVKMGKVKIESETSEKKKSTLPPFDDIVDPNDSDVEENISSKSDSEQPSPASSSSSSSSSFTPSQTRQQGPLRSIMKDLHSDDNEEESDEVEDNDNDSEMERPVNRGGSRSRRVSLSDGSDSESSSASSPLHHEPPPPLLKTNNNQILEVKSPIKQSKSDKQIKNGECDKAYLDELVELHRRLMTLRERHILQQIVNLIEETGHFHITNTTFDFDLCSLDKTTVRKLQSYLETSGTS
T cruzi repl – inhibitors of intracellular T. cruzi growth, primary screen, luminescence, NIH3T3 host cells; actives 1.4% (n = 300,000); T. cruzi beta-gal in NIH3T3, 90 h; inhibition, % (concentration not given with the values); AID 1885, 2009;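 active = mean inhibition across valid replicates above about 55%, limit read from the data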;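 also: signal also drops with host cell toxicity which is not excluded here; 0% = plate median of DMSO wells and 100% = zero luminescence signal; higher percent means less beta-gal luminescence so fewer parasites; stock transfer was 50 nL into about 50 µL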
rRNA inh HTS OD600 – also measured in rRNA inh HTS; calls as there; OD600 change, %; measured here: OD600 growth;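 optical density of the mix in the first replicate; 0 = DMSO median and -100 = no signal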
rRNA inh HTS RFP – second read-out of rRNA inh HTS, no call of its own (marks repeat the call); RFP signal change, %; measured here: RFP humanized mutant strains;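 first replicate; 0 = DMSO median and -100 = no signal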
* = called active by the depositor; & = joins results of further samples. The list is partial, so the mix of outcomes need not match the whole.

For COc1ccc(NC(=O)Nc2ccc3c(c2)C(=O)N([C@H](C)CO)C[C@H](C)[C@@H](CN(C)S(C)(=O)=O)O3)cc1 the results were rRNA inh HTS 2&11, Beta apoptosis -3, UCH37 DUB inh 0.8, Bfl-1 A1 inh 0.1, FGF22 binding inactive, AF4-AF9 inh -1.4, rRNA inh HTS OD600 -1&16 and rRNA inh HTS RFP -0.4&1.2.
`O=C(CSc1n[nH]c(-c2ccncc2)n1)c1ccccc1` gave E coli growth 0.66, Beta apoptosis -3, UCH37 DUB inh 1.2, Bfl-1 A1 inh -1.5 and T cruzi repl -17.
For CC[C@]12c3[nH]c4ccc(OC)cc4c3CCN1C(=O)C(CC(=O)NCc1ccc(OC)c(OC)c1)C[C@@H]2C(=O)N1CCN(C(=O)C2CC2)CC1 (some centres undefined) the results were E coli growth 0.67, rRNA inh HTS 6, UCH37 DUB inh -0.3, FGF22 binding inactive, AF4-AF9 inh -3.0, rRNA inh HTS OD600 7 and rRNA inh HTS RFP -1.5.
Screening Cn1cncc1C#Cc1c(C=O)[nH]c2ccccc12 returned E coli growth 0.65, rRNA inh HTS 2, Beta apoptosis -6, UCH37 DUB inh -5.3, Bfl-1 A1 inh 2.6, FGF22 binding inactive, AF4-AF9 inh 3.3, rRNA inh HTS OD600 1 and rRNA inh HTS RFP 6.0.
For COc1ccc(NC(=O)CN(c2ccc(OC)cc2)S(=O)(=O)c2c(C)nn(C)c2C)cc1 the results were E coli growth 0.67, rRNA inh HTS 2, Beta apoptosis -11, UCH37 DUB inh 3.6, Bfl-1 A1 inh 0.2, FGF22 binding inactive, AF4-AF9 inh -0.1, T cruzi repl 1, rRNA inh HTS OD600 11 and rRNA inh HTS RFP -6.1.
CC(C)Cc1nnc(NC(=O)CCC(=O)N2CC(C)CC(C)C2)s1 (centres undefined) was read as E coli growth 0.7, rRNA inh HTS 16, Beta apoptosis 1, UCH37 DUB inh 2.1, Bfl-1 A1 inh 1.3, FGF22 binding inactive, AF4-AF9 inh -1.9, T cruzi repl 24, rRNA inh HTS OD600 19 and rRNA inh HTS RFP 5.4.
For CCN(CC)S(=O)(=O)c1ccc(C)c(NC(=O)CNCc2ccccc2OC)c1 the results were E coli growth 0.68, rRNA inh HTS 2, Beta apoptosis 2, UCH37 DUB inh 3.8, Bfl-1 A1 inh -0.3, FGF22 binding inactive, AF4-AF9 inh 1.4, T cruzi repl 17, rRNA inh HTS OD600 -1 and rRNA inh HTS RFP 3.6.
Screening O=C(NC1CCN(C(=O)NCc2ccccc2)CC1)c1ccccc1 returned E coli growth 0.68, rRNA inh HTS 10, Beta apoptosis 0, UCH37 DUB inh 3.0, Bfl-1 A1 inh 0.6, FGF22 binding inactive, AF4-AF9 inh -0.6, T cruzi repl 0, rRNA inh HTS OD600 1 and rRNA inh HTS RFP -2.0.
`CCN(CC)CCCN1C=C2C(=O)C(C)(OC(=O)C3CCCC3)C(=O)C=C2C=C1c1ccsc1` (centres undefined) gave E coli growth 0.72, rRNA inh HTS 31, Beta apoptosis -9, UCH37 DUB inh 1.7, Bfl-1 A1 inh -0.4, FGF22 binding inactive, AF4-AF9 inh -1.4, T cruzi repl 2, rRNA inh HTS OD600 21 and rRNA inh HTS RFP 2.7.
`Cc1ccc(OCCn2c(CCCO)nc3ccccc32)cc1` gave E coli growth 0.66, Beta apoptosis -1, UCH37 DUB inh -1.5, Bfl-1 A1 inh 0.3 and T cruzi repl -1.

Retrieved by compound from the list above (two):
For CCN(CC)S(=O)(=O)c1ccc(C)c(NC(=O)CNCc2ccccc2OC)c1 the results were E coli growth 0.68, rRNA inh HTS 2, Beta apoptosis 2, UCH37 DUB inh 3.8, Bfl-1 A1 inh -0.3, FGF22 binding inactive, AF4-AF9 inh 1.4, T cruzi repl 17, rRNA inh HTS OD600 -1 and rRNA inh HTS RFP 3.6.
`CCN(CC)CCCN1C=C2C(=O)C(C)(OC(=O)C3CCCC3)C(=O)C=C2C=C1c1ccsc1` (centres undefined) gave E coli growth 0.72, rRNA inh HTS 31, Beta apoptosis -9, UCH37 DUB inh 1.7, Bfl-1 A1 inh -0.4, FGF22 binding inactive, AF4-AF9 inh -1.4, T cruzi repl 2, rRNA inh HTS OD600 21 and rRNA inh HTS RFP 2.7.

More structures follow:
For NC(=O)c1oc2ccccc2c1NC(=O)c1nc2ccccc2s1 the results were E coli growth 0.78, Beta apoptosis -4, UCH37 DUB inh -26, Bfl-1 A1 inh 1.7 and T cruzi repl 8.
`Cc1ccsc1C(=O)OCC(=O)c1cc2ccccc2o1` gave E coli growth 0.66, Beta apoptosis -2, UCH37 DUB inh 1.4, Bfl-1 A1 inh 0.4 and T cruzi repl 3.
Screening Clc1ccc(-n2ncc3c(NCCN4CCOCC4)ncnc32)cc1 returned E coli growth 0.68, Beta apoptosis -5, UCH37 DUB inh 0.0, Bfl-1 A1 inh -0.3 and T cruzi repl -1.
`COc1cc(CN=Cc2c(O)n(Cc3ccccc3)c(=S)[nH]c2=O)cc(OC)c1` gave E coli growth 0.71, UCH37 DUB inh 8.0, Bfl-1 A1 inh 0.7, FGF22 binding inactive, AF4-AF9 inh 1.4 and T cruzi repl -2.
CCCn1c(N)c(N2CCCCC2)c(=O)n(CC(=O)Nc2ccc(C(C)=O)cc2)c1=O was read as E coli growth 0.7, rRNA inh HTS -6, Beta apoptosis -2, UCH37 DUB inh 0.5, Bfl-1 A1 inh 0.9, FGF22 binding inactive, AF4-AF9 inh 3.9, rRNA inh HTS OD600 -21 and rRNA inh HTS RFP -2.0.
COc1ccc(C(=O)COC(=O)c2cc(S(=O)(=O)N3CCCCC3)ccc2N2CCOCC2)c(OC)c1 was read as rRNA inh HTS 7, Beta apoptosis 7, Bfl-1 A1 inh 0.7, FGF22 binding inactive, AF4-AF9 inh -10, T cruzi repl 46, rRNA inh HTS OD600 -4 and rRNA inh HTS RFP -2.1.
`Cn1c(CNC(=O)CCNC(=O)c2ccccc2)cc(=O)n(C)c1=O` gave E coli growth 0.73, rRNA inh HTS 3, Beta apoptosis -4, UCH37 DUB inh -1.2, Bfl-1 A1 inh -0.5, FGF22 binding inactive, AF4-AF9 inh 1.5, T cruzi repl 1, rRNA inh HTS OD600 3 and rRNA inh HTS RFP 15.
For CCOc1ccc(NC(=O)[C@H](C)NC(=O)C2CC(=O)N(c3ccc(OC)cc3)C2)cc1 (some centres undefined) the results were E coli growth 0.64, rRNA inh HTS 10, Beta apoptosis 3, UCH37 DUB inh 0.8, Bfl-1 A1 inh -0.6, FGF22 binding inactive, AF4-AF9 inh -2.4, T cruzi repl 2, rRNA inh HTS OD600 3 and rRNA inh HTS RFP 0.7.
Cc1ccc(-c2nnc(-c3ccc(NC(=O)c4ccco4)cc3)o2)cc1 was read as E coli growth 0.74, Beta apoptosis 6, UCH37 DUB inh -14, Bfl-1 A1 inh 0.6 and T cruzi repl 10.
`CC(C)(C)C(=O)NC(=C(Cl)Cl)P(=O)(O)O` gave E coli growth 0.74, Beta apoptosis 1, UCH37 DUB inh 4.6 and Bfl-1 A1 inh 0.1.
For COc1ccc(CC(=O)Oc2ccccc2C)cc1 the results were E coli growth 0.67, rRNA inh HTS 1, Beta apoptosis -2, UCH37 DUB inh 4.9, Bfl-1 A1 inh 0.4, FGF22 binding inactive, AF4-AF9 inh -0.7, T cruzi repl 2, rRNA inh HTS OD600 5 and rRNA inh HTS RFP 0.9.
`COc1cc2c(cc1OC)[C@@H]1Cc3cc4c(cc3[C@H](C2)N1C)OCO4` gave rRNA inh HTS 12, Beta apoptosis -2, UCH37 DUB inh 2.0, Bfl-1 A1 inh -0.3, FGF22 binding inactive, T cruzi repl 6, rRNA inh HTS OD600 20 and rRNA inh HTS RFP -2.6.
Screening Clc1ccc(-c2nnc(COc3ncnc4sccc34)o2)cc1 returned E coli growth 0.67, rRNA inh HTS -15, Beta apoptosis -6, UCH37 DUB inh 2.1, Bfl-1 A1 inh 0.4, FGF22 binding inactive, AF4-AF9 inh -17, T cruzi repl 5, rRNA inh HTS OD600 -19 and rRNA inh HTS RFP -5.9.
Screening CC(NC(=O)CN(C1CCCCC1)S(C)(=O)=O)c1ccccc1 (centres undefined) returned E coli growth 0.74, Beta apoptosis 2, UCH37 DUB inh -1.1, Bfl-1 A1 inh 0.6 and T cruzi repl 10.
O=C(/C=C/c1cn(CC(O)CN2CCCCCC2)c2ccccc12)c1cccs1 (centres undefined) was read as E coli growth 0.62, Beta apoptosis -5, UCH37 DUB inh 6.0, Bfl-1 A1 inh -1.1 and T cruzi repl 17.
Cc1ccc(NC(=O)CN(Cc2ccccc2)S(C)(=O)=O)cc1C was read as E coli growth 0.74, rRNA inh HTS -10, Beta apoptosis -5, UCH37 DUB inh 6.2, Bfl-1 A1 inh 1.7, FGF22 binding inactive, AF4-AF9 inh -9.0, T cruzi repl -8, rRNA inh HTS OD600 0 and rRNA inh HTS RFP 2.5.
Screening CCC(C)OC(=O)C1=C(C)NC(=O)NC1c1ccc(F)cc1 (centres undefined) returned E coli growth 0.66, rRNA inh HTS -14, Beta apoptosis -2, UCH37 DUB inh -0.1, Bfl-1 A1 inh 1.1, FGF22 binding inactive, AF4-AF9 inh 4.6, T cruzi repl -6, rRNA inh HTS OD600 -27 and rRNA inh HTS RFP -1.3.
c1cc(SSc2ccncc2)ccn1 was read as E coli growth 0.64, rRNA inh HTS 12, Beta apoptosis -11, UCH37 DUB inh 5.1, Bfl-1 A1 inh -0.3, FGF22 binding inactive, AF4-AF9 inh 0.8, T cruzi repl -6, rRNA inh HTS OD600 9 and rRNA inh HTS RFP 0.3.
Screening COC(=O)N1CC(=O)N(OC)C1c1ccc(Cl)cc1Cl (centres undefined) returned E coli growth 0.7, Beta apoptosis 1, UCH37 DUB inh 0.5, Bfl-1 A1 inh -0.5 and T cruzi repl -5.
`Cc1ccc(CSCC(=O)NCc2ccc3c(c2)OCO3)cc1` gave E coli growth 0.65, rRNA inh HTS -23*, Beta apoptosis 1, UCH37 DUB inh 4.3, Bfl-1 A1 inh -0.9, FGF22 binding inactive, AF4-AF9 inh 3.0, T cruzi repl 4, rRNA inh HTS OD600 -15* and rRNA inh HTS RFP 0.9*.
Cc1ccc(SC(C)C(=O)N2CCN(c3ccccc3)CC2)cc1 (centres undefined) was read as E coli growth 0.71, rRNA inh HTS -20, UCH37 DUB inh 3.0, Bfl-1 A1 inh 0.4, FGF22 binding inactive, AF4-AF9 inh -28, T cruzi repl 3, rRNA inh HTS OD600 -18 and rRNA inh HTS RFP -11.
For CC1CCc2c(sc3nc(CSc4n[nH]c(N)n4)[nH]c(=O)c23)C1 (centres undefined) the results were E coli growth 0.67, Beta apoptosis -5, UCH37 DUB inh 2.6, Bfl-1 A1 inh -0.2 and T cruzi repl -1.
